BJeLR viab HTS = compounds reducing viability of BJeLR cells; BJeLR fibroblasts viability, CellTiterGlo ATP luminescence, 48 h; HRASV12, hTERT and SV40 LT/ST transformed; viability loss activity score, % (concentration not given with the values); actives 0.64% (n = 30,000); AID 2275; in the data active = viability loss activity score above about 50%; about a fifth of its hits are not listed in these tables;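 note: higher score means fewer live cells and less ATP luminescence; stock transfer was 50 or 100 nL into about 30 µL; 0% = vehicle wells and 100% = a reference killing control; one replicate is shown; the record names a cut of 85%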
A1 inhib = blocks A1 activity. actives 0.51% (n = 21,000). AID 2241. caspase activation, % (no concentration beside the values). MEF A1-2A-BIM cells, caspase-Glo luminescence, 3 h; percent of clofoctol signal, DMSO as zero;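 active = most replicate scores above 10, or exactly half above 10 with mean activity above 10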;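 note: effector caspase 3 and 7 activity cleaving a DEVD luciferin substrate; 50 nL library stock added to about 30 µL; numbers are from one replicate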
Active calls of the source: *; x = no result given. The list is partial; rates above refer to the full screens.

SMILES	BJeLR viab HTS	A1 inhib
CC(C)(C)C1=NOC(O)(C(F)(F)F)C1 (stereo not drawn)	-2.7	-0.3
CCCCC1=NN(C(=O)c2ccccc2)C(O)(C(F)(F)F)C1 (stereo not drawn)	3.9	0.6
CC1(C)CC[C@]2(C(=O)OC3OC(CO)C(O)C(O)C3O)CC[C@]3(C)C(=CCC4[C@@]5(C)CC[C@H](OC6OC(C(=O)O)C(O)C(O)C6O)C(CO)(CO)C5CC[C@]43C)[C@@H]2C1 (stereo partly drawn)	132.9*	1.6
C[C@H]1CC[C@@H]2[C@@H](C(=O)c3c(O)c([C@]4(O)CC[C@@H](O)[C@H]5O[C@H]54)c[nH]c3=O)[C@@H](C)C=C[C@H]2C1	53.8*	3.2
O=C(CCC1=NS(=O)(=O)c2ccccc2N1)NC1CCCCCCC1	-2.5	-0.2
C[C@@H]1CN([C@H](C)CO)C(=O)c2cccc(NC(=O)Nc3ccc4c(c3)OCO4)c2O[C@@H]1CN(C)S(=O)(=O)c1cn(C)cn1	-3.3	x
N#CCNC(=O)c1ccc(-c2ccccc2)cc1	2.5	-3.5
Cc1ccccc1Cn1c(=O)n(CCC(=O)NCCc2ccccc2)c(=O)c2ccccc21	-1.0	x
CCN1CCCC1CNC(=O)c1ccc2c(=O)n3c(nc2c1)CCCCC3 (stereo not drawn)	5.0	0.5
Cc1ccc(S(=O)(=O)N(C)C[C@@H]2Oc3c(NC(=O)c4ccc(-c5nccs5)cc4)cccc3C(=O)N([C@@H](C)CO)C[C@@H]2C)cc1	-3.4	x
C[C@H]1CN([C@@H](C)CO)C(=O)c2cc(NC(=O)CCN3CCOCC3)ccc2O[C@@H]1CN(C)S(=O)(=O)c1ccc(F)cc1	0.2	0.1
Cc1ccc2nc(Nc3ccccc3)nc(-c3ccccc3)c2c1	3.4	-0.9
C[C@H]1CN([C@@H](C)CO)C(=O)c2cc(NC(=O)CCCCCC(=O)Nc3ccccc3N)ccc2O[C@@H]1CN(C)S(=O)(=O)c1cn(C)cn1	-5.2	x
C[C@@H]1CN([C@@H](C)CO)C(=O)c2cc(NS(=O)(=O)c3ccc(Cl)cc3)ccc2O[C@H]1CN(C)S(=O)(=O)c1ccccc1	0.9	-1.7
C[C@H]1CN([C@@H](C)CO)C(=O)c2cc(NC(=O)Cc3cn(C)c4ccccc34)ccc2O[C@@H]1CN(C)Cc1ccc(Oc2ccccc2)cc1	-4.6	0.3
COc1ccc(S(=O)(=O)Nc2cccc3c2O[C@H](CN(C)CC2CC2)[C@H](C)CN([C@@H](C)CO)C3=O)cc1	2.9	x
Cc1ccc(/C=C2\SC(=S)N(C(C(=O)O)C(C)C)C2=O)cc1 (stereo not drawn)	3.4	-1.6
C[C@@H]1CN([C@@H](C)CO)C(=O)c2cccc(NC(=O)C3CC3)c2O[C@H]1CN(C)Cc1ccc(Cl)c(Cl)c1	-1.7	x
COc1ccc(OC)c2c1CC(C)(C)N=C2SC	-4.9	0.6
N#CC(C#N)Cc1ccc(O)cc1	-0.6	-0.8
CCn1cc(CCCC(=O)N2CCCC2)c2ccccc21	1.7	1.3
COc1ccc(CN(C)C[C@H]2Oc3ccc(NC(=O)Nc4c(C)noc4C)cc3C(=O)N([C@@H](C)CO)C[C@@H]2C)cc1	-5.7	1.0
CC(=O)N(/C=C1\SC(=S)N(Cc2ccccc2)C1=O)c1ccccc1	-0.1	1.3
C[C@@H]1CN([C@@H](C)CO)C(=O)c2cccc(NC(=O)Nc3ccc(C(F)(F)F)cc3)c2O[C@@H]1CN(C)Cc1ccc(Cl)c(Cl)c1	2.2	x
C[C@H](CO)N1C[C@H](C)[C@H](CN(C)Cc2ccncc2)Oc2ccc(NC(=O)Cn3cnnn3)cc2C1=O	3.9	0.1
Cc1cc(C(=O)N2CCN(C(c3ccccc3)c3ccccc3)CC2)on1	8.4	x
C[C@H](CO)N1C[C@H](C)[C@@H](CN(C)Cc2ccc(C(F)(F)F)cc2)Oc2c(NC(=O)c3cnccn3)cccc2C1=O	1.5	x
Cc1noc(C)c1NC(=O)N(C)C[C@H]1Oc2ccc(NC(=O)c3ccncc3)cc2C(=O)N([C@@H](C)CO)C[C@H]1C	-3.9	0.0
COc1ccccc1C1CC(=O)Nc2cc3c(cc21)CCC3 (stereo not drawn)	50.5*	x
COc1cc(CN2c3ccccc3N3CCCCCC32)cc(OC)c1OC (stereo not drawn)	-1.9	x
C[C@@H]1CN([C@H](C)CO)C(=O)c2cccc(NC(=O)Nc3cccc4ccccc34)c2O[C@@H]1CN(C)Cc1ccncc1	-4.9	x
C[C@H]1CN([C@@H](C)CO)C(=O)c2cccc(NC(=O)c3cnccn3)c2O[C@H]1CN(C)Cc1ccc(C(=O)O)cc1	-1.4	x
O=C1C2=C(C(=O)N1c1ccc(Br)cc1)C(c1ccccc1)=NCCN2	-5.4	0.5
CCc1ccc(C(=O)Nc2ccc(S(N)(=O)=O)cc2)cc1	-1.5	0.9
CC(C)NC(=O)Nc1ccc2c(c1)C(=O)N([C@@H](C)CO)C[C@@H](C)[C@@H](CN(C)S(=O)(=O)c1cccs1)O2	5.6	2.0
O=C1c2ccccc2-c2c1c1ccccc1c(=O)n2CC1CC1	0.3	-0.8
COc1ccc(CCNC(=O)c2nc3ccccc3c(=O)n2-n2cccc2)cc1OC	2.1	-0.4
O=C(NC1CCCCC1)C1CCCN(S(=O)(=O)c2cccs2)C1 (stereo not drawn)	3.9	x
C[C@H]1CN([C@@H](C)CO)C(=O)c2cccc(NS(=O)(=O)c3cn(C)cn3)c2O[C@H]1CN(C)C(=O)Nc1ccc(F)cc1	3.8	x
C[C@@H]1CN([C@H](C)CO)C(=O)c2cccc(NC(=O)C3CCOCC3)c2O[C@@H]1CN(C)S(=O)(=O)c1ccc(F)cc1	0.1	x
CC1(C)OC[C@@H]([C@H](O)P(=O)(c2ccccc2)c2ccccc2)O1	0.9	0.4
C[C@H]1CN([C@@H](C)CO)C(=O)c2cccc(NS(=O)(=O)c3cn(C)cn3)c2O[C@@H]1CN(C)S(=O)(=O)c1ccc(Cl)cc1	1.4	x
Cc1ccc(S(=O)(=O)Nc2ccc3c(c2)C(=O)N([C@@H](C)CO)C[C@@H](C)[C@H](CN(C)Cc2ccc(C(=O)O)cc2)O3)cc1	1.3	-1.0
C[C@H]1CN([C@@H](C)CO)C(=O)c2cc(NC(=O)CCCCCC(=O)Nc3ccccc3N)ccc2O[C@@H]1CN(C)C(=O)NC1CCCCC1	-0.6	x
O=C(NCCc1ccccc1)C1CCC(=O)N1C1CCCCC1 (stereo not drawn)	0.4	0.8
C[C@H](CO)N1C[C@H](C)[C@@H](CN(C)S(=O)(=O)c2ccccc2)Oc2ccc(NC(=O)CCN3CCOCC3)cc2C1=O	5.4	0.2
Cc1ccc(-n2ncc(N(C)n3cccc3)c(Cl)c2=O)cc1	-1.4	-0.9
Cc1ccc(S(=O)(=O)N(C)C[C@H]2Oc3ccc(NS(=O)(=O)c4cn(C)cn4)cc3C(=O)N([C@H](C)CO)C[C@H]2C)cc1	3.9	-0.3

Compound profiles (already shown). Values in the order: BJeLR viab HTS, A1 inhib
Profile of `C[C@H](CO)N1C[C@H](C)[C@@H](CN(C)S(=O)(=O)c2ccccc2)Oc2ccc(NC(=O)CCN3CCOCC3)cc2C1=O` = 5.4, 0.2
Profile of `Cc1ccc(S(=O)(=O)N(C)C[C@H]2Oc3ccc(NS(=O)(=O)c4cn(C)cn4)cc3C(=O)N([C@H](C)CO)C[C@H]2C)cc1` = 3.9, -0.3
Profile of `COc1ccc(CCNC(=O)c2nc3ccccc3c(=O)n2-n2cccc2)cc1OC` = 2.1, -0.4
Profile of `C[C@@H]1CN([C@H](C)CO)C(=O)c2cccc(NC(=O)C3CCOCC3)c2O[C@@H]1CN(C)S(=O)(=O)c1ccc(F)cc1` = 0.1, x

Of the compounds above, these contain an aryl methoxy group.
SMILES	BJeLR viab HTS	A1 inhib
COc1ccc(S(=O)(=O)Nc2cccc3c2O[C@H](CN(C)CC2CC2)[C@H](C)CN([C@@H](C)CO)C3=O)cc1	2.9	x
COc1ccc(OC)c2c1CC(C)(C)N=C2SC	-4.9	0.6
COc1ccc(CN(C)C[C@H]2Oc3ccc(NC(=O)Nc4c(C)noc4C)cc3C(=O)N([C@@H](C)CO)C[C@@H]2C)cc1	-5.7	1.0
COc1ccccc1C1CC(=O)Nc2cc3c(cc21)CCC3 (stereo not drawn)	50.5*	x
COc1cc(CN2c3ccccc3N3CCCCCC32)cc(OC)c1OC (stereo not drawn)	-1.9	x
COc1ccc(CCNC(=O)c2nc3ccccc3c(=O)n2-n2cccc2)cc1OC	2.1	-0.4

Additional results follow.
SMILES	BJeLR viab HTS	A1 inhib
CCc1ccc(N=Cc2c(O)n(-c3ccccc3)c(=O)c3ccccc23)cc1	-5.9	40.7*
C[C@@H]1CN([C@@H](C)CO)C(=O)c2cc(NC(=O)Nc3ccc(C(F)(F)F)cc3)ccc2O[C@H]1CN(C)Cc1ccc(C(=O)Nc2ccccc2N)cc1	8.9	x
C[C@@H]1CN([C@@H](C)CO)C(=O)c2cc(NC(=O)c3ccncc3)ccc2O[C@@H]1CN(C)Cc1ccc2c(c1)OCO2	1.6	0.3
CCC(c1ccc(O)cc1)C(CC)c1ccc(O)cc1 (stereo not drawn)	7.5	1.2
C[C@@H]1CN([C@H](C)CO)C(=O)c2cc(NS(=O)(=O)c3ccc(F)cc3)ccc2O[C@H]1CN(C)C	-1.5	-0.4
C[C@@H]1CN([C@H](C)CO)C(=O)c2cc(NC(=O)NC3CCCCC3)ccc2O[C@H]1CN(C)Cc1ccccc1	-2.8	0.1
Cc1noc(C)c1NC(=O)N(C)C[C@H]1Oc2c(NC(=O)c3nc4ccccc4s3)cccc2C(=O)N([C@@H](C)CO)C[C@H]1C	-7.0	x
COc1ccc(/C=C2\Oc3cc(O)cc(O)c3C2=O)cc1O	6.7	-1.7
C[C@@H]1CN([C@@H](C)CO)C(=O)c2cccc(NC(=O)c3nc4ccccc4s3)c2O[C@@H]1CN(C)Cc1ccncc1	0.4	x
COC1CC(=O)C23C(=O)NC(CC(C)C)C2C(C)C(C)=CC3/C=C(\C)CCC(O)C1O (stereo not drawn)	5.1	0.3
Cc1ccc2c(c1)c(=O)c(C(=O)O)cn2C	-2.6	0.7
COc1ccc2c(c1)c(=O)oc1cc(O)ccc12	-2.5	-4.1
COc1ccccc1C1CCN(C(=O)c2scc(S(=O)(=O)c3ccc(Cl)cc3)c2C)CC1	2.5	-1.7
Cc1ccc(S(=O)(=O)N(C)C[C@H]2Oc3ccc(NS(=O)(=O)c4c(C)noc4C)cc3C(=O)N([C@H](C)CO)C[C@H]2C)cc1	3.9	-0.1
O=c1[nH]nc(CSc2ccc(Cl)cc2)c2ccccc12	3.1	-0.7
CN(C)CCCN1C(=O)C2C3C=CC(C3)C2C1=O (stereo not drawn)	2.2	0.0
Cc1ccc(S(=O)(=O)N(C)C[C@@H]2Oc3ccc(NS(=O)(=O)c4ccccc4)cc3C(=O)N([C@H](C)CO)C[C@H]2C)cc1	0.5	0.6
CC(C)NC(=O)N1CCc2sccc2C1c1ccc(Cl)cc1 (stereo not drawn)	-1.2	0.5
CSC1=C(C#N)C(=O)NC(c2ccc(Cl)cc2)S1 (stereo not drawn)	2.0	0.6
C[C@@H]1CN([C@@H](C)CO)C(=O)c2cc(NC(=O)Cc3cn(C)c4ccccc34)ccc2O[C@H]1CN(C)S(C)(=O)=O	-2.0	0.0
Nn1c(CSc2nc3ccccc3o2)nnc1CSc1nc2ccccc2o1	-6.0	0.5
Cc1noc(C)c1NC(=O)Nc1cccc2c1O[C@@H](CN(C)C(=O)Nc1ccc(C(F)(F)F)cc1)[C@H](C)CN([C@@H](C)CO)C2=O	2.6	x
COc1cccc(NC(=O)c2ccc3c(SCC(=O)O)c4c(nc3c2)CCCC4)c1	-14.2	x
O=C(Oc1ccc(Cl)cc1Cl)c1cccnc1SCCS(=O)(=O)c1ccccc1	-9.1	-0.8
O=C(NC1CCCC1)c1cc2c(s1)CS(=O)(=O)C2	-2.8	-0.8
COc1ccc(NC(=O)N(C)C[C@H]2Oc3c(NC(=O)Nc4ccc(C(F)(F)F)cc4)cccc3C(=O)N([C@H](C)CO)C[C@H]2C)cc1	-0.4	x
C[C@@]12C[C@]3(O)O[C@H](O1)[C@]1(COC(=O)c4ccccc4)[C@H]3C[C@@]12O[C@@H]1O[C@H](CO)[C@@H](O)[C@H](O)[C@H]1O	3.7	-0.8
O=S(=O)(NC(=NCCc1ccccn1)Nc1cccc(Cl)c1)c1ccccc1	14.5	0.0
Cc1ccc(S(=O)(=O)N(C)C[C@@H]2Oc3ccc(NS(C)(=O)=O)cc3C(=O)N([C@@H](C)CO)C[C@H]2C)cc1	1.9	-0.6
COC(=O)Oc1cc2oc(=O)sc2cc1Cl	0.1	-0.4
c1ccc(-c2nnc3n2N=C(c2cccs2)CS3)cc1	-2.9	-0.8
Cc1ccc(S(=O)(=O)N(C)C[C@@H]2Oc3ccc(NC(=O)Nc4ccc5c(c4)OCO5)cc3C(=O)N([C@H](C)CO)C[C@@H]2C)cc1	0.5	0.5
C=CCC1NCCc2c(Br)cccc21 (stereo not drawn)	-0.9	x
FC(F)(F)c1cc(-c2ccccc2)nc2c(-c3ccccc3)cnn12	3.1	-0.6
C[C@@H]1CN([C@H](C)CO)C(=O)c2cc(NC(=O)NC3CCCCC3)ccc2O[C@H]1CN(C)C(=O)Nc1cccc2ccccc12	2.2	1.0
C=CCNC(=O)CCN1C(=O)COc2ccccc21	4.0	0.0
CCCCN1CCc2c1nc1ccc(Br)cc1c2N	-1.4	x
Cc1ccc(-n2c(SCC(=O)N3CCCCC3)nc3c([nH]c4ccccc43)c2=O)cc1	1.4	x
CNC[C@@H]1Oc2ccc(NS(=O)(=O)c3cn(C)cn3)cc2C(=O)N([C@H](C)CO)C[C@@H]1C	1.9	0.1

Source: PubChem (Broad Institute)
